Screening results deposited in PubChem by National Center for Advancing Translational Sciences (NCATS).
TDP1 cell CPT – growth inhibition of DT40 Tdp1-/-;hTDP1 cells with camptothecin (screen for TDP1 inhibitors). chicken DT40 Tdp1-/-;hTDP1 cells + 20 nM CPT, ATP luminescence, 48 h. 420,000 compounds, 12% hits. Potency, µM (top dose mostly 46.2 µM), inactives show at the top dose activity change, negative = growth inhibition, usual class: inhibitors. AID 686979; further: nearly all actives have a fitted effect of over 55% in size
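Chicken DT40 Tdp1-/- cells complemented with human TDP1, 400 cells/well, exposed to compounds plus 20 nM camptothecin for at least 48 h at 37 C; viability read as ATP content by CellTiter-Glo luminescence.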
N370S GC mod – N370S glucocerebrosidase modulation, Gaucher chaperone candidate. P04062. N370S GC spleen homogenate, 4MU-glucoside fluorescence. Potency, µM (series often up to 59.4 µM), for inactives: at the top dose activity change, negative = inhibition, actives largely listed as inhibitors. 330,000 compounds, 0.092% hits. AID 2101;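 further: 0% = full enzyme activity and -100% = no enzyme basal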
An asterisk follows results filed as active; ? = inconclusive; · = no result given. The call rests on the fitted dose curve; in most records, active means well fitted curve in the direction sought with a large enough effect; inconclusive means small, poorly fitted or top-dose-only effect, or another doubt; inactive means no such curve, though single readings can be large; an effect the other way counts as inactive or inconclusive. Unless noted, on the % scale 0 is the no-effect control and ±100 the full control effect; potency means the concentration at half of the fitted maximal effect. This is a subset, and most or all hits are left out here.

SMILES	TDP1 cell CPT	N370S GC mod
CC(OC(=O)CNC(=O)C12CC3CC(CC(C3)C1)C2)C(=O)Nc1ccc(S(N)(=O)=O)cc1 (stereo not given)	11%	-17%
COc1cc(NC(=O)C2CCN(S(=O)(=O)c3cccc4nonc34)CC2)cc(OC)c1	-2%	0%
O=[N+]([O-])c1cccc(/C=N/N=C\c2ccccc2)c1	9%	1%
c1ccc(Nc2n[nH]nc2-c2ccccc2)cc1	-1%	20%
Cc1nn(C)c(C)c1CCC(=O)N1CCCC(N2CCN(c3ccc(F)cc3)CC2)C1 (stereo not given)	-18%	8%
COc1ccc(C)cc1S(=O)(=O)N(C)CC(=O)Nc1ccc2c(c1)OCO2	4%	-10%
COc1ccccc1NC(=S)N/N=C1\CC(C)(C)Oc2ccc(O)cc21	?	-4%
CC(C)(C)Nc1nc(-c2ccccn2)nc2ccccc12	4.6µM*	-27%
Cc1ccc(C2(C)NC(=O)N(CC(=O)c3ccc(Cl)s3)C2=O)cc1 (stereo not given)	?	-4%
CCOc1ccccc1C(=O)N(C)CC(=O)Nc1ccc(OC)cc1	5%	-2%
O=C(CSc1nnc(-c2cccc(F)c2)o1)N1CCCC1	5%	-5%
CCC(CC)COC(=O)C1=C(C)NC(=O)NC1c1ccc2c(c1)OCO2 (stereo not given)	-12%	2%
COc1ccc(-c2nnn(CCc3nn[nH]n3)n2)cc1	-15%	·
COc1ccccc1CN(C)C(=O)c1cc(C)nc2ccccc12	16µM*	0%
O=C(O)[C@@H]1CCCN1C(=O)c1ccco1	10%	2%
CCS(=O)(=O)N1Cc2ccccc2CC1C(=O)Nc1nc2ccc(F)cc2s1 (stereo not given)	0%	4%
COc1ccc(NS(=O)(=O)c2cc(NC(=O)c3ccc(C)s3)ccc2N2CCOCC2)cc1	5%	6%
COc1ccc(Br)c(C(=O)Nn2c(C)nc3ccccc3c2=O)c1	-30%	6%
CCOC(=O)C1=C(C)N(C)C(=O)NC1c1c(O)ccc2ccccc12 (stereo not given)	?	-4%
Cc1ccc(-n2cccc2C(=O)NS(=O)(=O)c2ccc(C)cc2)cc1	-2%	8%
Cc1c2cnn(-c3ccccc3)c(=O)c2c(C)n1CCCC(=O)N1CCN(c2ncccn2)CC1	?	1%
O=C(Nc1cccc2[nH]ncc12)NS(=O)(=O)c1ccccc1	-4%	-8%
CC(=O)C1(O)C(C)CC2C3CC=C4CC(O)CCC4(C)C3CCC21C (stereo not given)	4%	·
Cn1c(CNC(=O)c2ccc3c(c2)OCO3)nnc1SCC(=O)Nc1ccc(F)cc1F	5%	-1%
COc1ccc(S(=O)(=O)Nc2ccc(F)cc2)c(C)c1C	-30%	6%
Cc1ccc(N(CC(=O)NC2CC3CCC2C3)S(C)(=O)=O)cc1C (stereo not given)	0%	10%
CC(=O)C1=C(O)C(=O)N(CCCN2CCOCC2)C1c1ccccc1[N+](=O)[O-] (stereo not given)	?	7%
Cc1cccc(Cc2nnc(CCC(=O)NCc3ccncc3C)o2)c1	?	7%
Cc1ccc(S(=O)(=O)c2c(C)nn(C(C)(C)C)c2OC(=O)CC(C)C)cc1	-21%	-19%
CCOC(=O)C(C)n1cnc2c(nnn2-c2ccccc2)c1=O (stereo not given)	9%	-18%
NC(=O)c1ccc(-n2nnnc2Oc2ccc(Br)cc2)cc1	1%	12%
Cc1cccc(NC(=O)c2ccc(Cl)c(NC(=O)c3ccncc3)c2)c1C	12%	-8%
O=C(O)COCC(=O)N1CCN(c2cc(C(F)(F)F)nc3ccccc23)CC1	5%	-24%
C=CCc1ccc(OCCCNCc2ccccc2)c(OC)c1	?	-15%
CN1CCN(c2ccc(Cl)cc2NC(=O)c2ccc(S(=O)(=O)N3CCCCCC3)cc2)CC1	?	-8%
CCc1ccc2c(c1)c(N=NC1=NC(=O)CS1)c(O)n2C	-28%	-2%
COc1ccccc1N(CC(=O)NC(C)(C)C)C(=O)C1CSC(=O)C1 (stereo not given)	1%	7%
CCC1(c2ccccc2)NC(=O)N(CC(=O)N(c2ccccc2)C2CCS(=O)(=O)C2)C1=O (stereo not given)	1%	·
O=C(Nc1ccc(N2CCCC2)cc1)c1ccccc1F	10µM*	6%
O=C1CCCN1C(=O)COc1ccc([N+](=O)[O-])cc1	10%	-1%
COC(=O)c1ccc(S(=O)(=O)N2CCN(C(c3ccccc3)c3ccccc3)CC2)n1C	?	6%
Cc1ccccc1NC(=O)COC(=O)Cc1cccc(C(F)(F)F)c1	-5%	-1%
CCCCNC(=O)OC(C)CNC(=O)Oc1cccc(C)c1 (stereo not given)	-25%	13%
O=C(c1cccc(F)c1)N1CCc2ccccc21	-5%	2%
COc1cccc(-c2cc(C(=O)Nc3cnn(Cc4ccccc4C)c3)no2)c1	-22%	1%
CN(CC(=O)Nc1ccccc1Cl)C(=O)c1cc(=O)[nH]c2ccccc12	-7%	3%
Cc1cc(CN2CCC(N3CCC(C(=O)NC4CC4)CC3)CC2)cc(C)c1O	-10%	-6%
CC(C)Oc1ccc(/C(O)=C2/C(=O)C(=O)N(CCN(C)C)C2c2ccco2)cc1 (stereo not given)	1%	-2%
Cn1ncc2c1ncn1nc(CCc3ccccc3)nc21	3%	6%
CCn1c(-c2cccs2)nc2ccccc21	-11%	8%

(further entries)
SMILES	TDP1 cell CPT	N370S GC mod
CCOC(=O)c1cnc2nc(NCc3ccc(OCc4ccccc4)cc3)[nH]n2c1=O	-12%	·
O=C(NCCc1ccc(F)cc1)C1CCCO1 (stereo not given)	6%	-14%
COc1ccc(CCNC(=O)COc2ccc(S(=O)(=O)N3CCOCC3)cc2)cc1	-3%	1%
COC(=O)c1ccc(N2CCN(c3ccccc3)CC2)c(N)c1	?	-2%
CCOc1ccc(NC(=O)NCCCSC2CCCCC2)cc1	?	-2%
COc1ccc(-c2[nH]ncc2CN2CCN(c3ccccn3)CC2)c(OC)c1	-7%	-2%
C[C@H]1CN=C(N(C)C)N1CCC1CCCC1	?	-7%
O=C(CSc1nnc(NC(=O)C2CC(=O)N(c3ccc(F)cc3)C2)s1)NCC1CCCO1 (stereo not given)	-3%	0%
O=C(c1ccc(-c2ccccc2)cc1)N1CCCC1	-2%	12%
O=C(CSc1n[nH]c(=O)n1Cc1ccco1)Nc1ccccc1	1%	-14%
CCN1C(=O)[C@H]2[C@@H](c3ccc(Cl)cc3)N3C(=O)CN(CC4CC4)C(=O)[C@@]3(C)[C@H]2C1=O	6%	2%
CCCCn1c(N)c(N(CC)C(=O)c2ccc(C#N)cc2)c(=O)[nH]c1=O	-13%	-3%
Cc1ccccc1NC(=S)C1=C(O)c2sccc2N(C)S1(=O)=O	?	-2%
CS(=O)(=O)Nc1cccc(C2=NN(C(=O)CCC(=O)O)C(c3cccs3)C2)c1 (stereo not given)	-7%	4%
COC(=O)c1sc(NC(=O)C(C)C)c(C(=O)OC)c1C	-12%	21%
CCCCN(c1ccccc1)c1ncnc(N)c1[N+](=O)[O-]	?	-22%
N#CCCN(C(=O)Cn1nc(C(=O)O)c2ccccc2c1=O)c1ccccc1	12%	-3%
COC(=O)c1ccc(CN(c2ccccc2Cl)S(C)(=O)=O)cc1	-2%	3%
CCCCn1cnc2sc(-c3ccccc3)cc2c1=O	-21%	15%
CCC(C)(C)NC(=O)c1ccc2c(c1)N(CC(=O)N1CCCC1)C(=O)C(C)(C)O2	2%	-16%

A stretch from the list above:
SMILES	TDP1 cell CPT	N370S GC mod
COc1cccc(-c2cc(C(=O)Nc3cnn(Cc4ccccc4C)c3)no2)c1	-22%	1%
CN(CC(=O)Nc1ccccc1Cl)C(=O)c1cc(=O)[nH]c2ccccc12	-7%	3%
Cc1cc(CN2CCC(N3CCC(C(=O)NC4CC4)CC3)CC2)cc(C)c1O	-10%	-6%
CC(C)Oc1ccc(/C(O)=C2/C(=O)C(=O)N(CCN(C)C)C2c2ccco2)cc1 (stereo not given)	1%	-2%
Cn1ncc2c1ncn1nc(CCc3ccccc3)nc21	3%	6%
CCn1c(-c2cccs2)nc2ccccc21	-11%	8%
CCOC(=O)c1cnc2nc(NCc3ccc(OCc4ccccc4)cc3)[nH]n2c1=O	-12%	·
O=C(NCCc1ccc(F)cc1)C1CCCO1 (stereo not given)	6%	-14%
COc1ccc(CCNC(=O)COc2ccc(S(=O)(=O)N3CCOCC3)cc2)cc1	-3%	1%
COC(=O)c1ccc(N2CCN(c3ccccc3)CC2)c(N)c1	?	-2%
CCOc1ccc(NC(=O)NCCCSC2CCCCC2)cc1	?	-2%
COc1ccc(-c2[nH]ncc2CN2CCN(c3ccccn3)CC2)c(OC)c1	-7%	-2%
C[C@H]1CN=C(N(C)C)N1CCC1CCCC1	?	-7%
O=C(CSc1nnc(NC(=O)C2CC(=O)N(c3ccc(F)cc3)C2)s1)NCC1CCCO1 (stereo not given)	-3%	0%
O=C(c1ccc(-c2ccccc2)cc1)N1CCCC1	-2%	12%
O=C(CSc1n[nH]c(=O)n1Cc1ccco1)Nc1ccccc1	1%	-14%
CCN1C(=O)[C@H]2[C@@H](c3ccc(Cl)cc3)N3C(=O)CN(CC4CC4)C(=O)[C@@]3(C)[C@H]2C1=O	6%	2%
CCCCn1c(N)c(N(CC)C(=O)c2ccc(C#N)cc2)c(=O)[nH]c1=O	-13%	-3%
Cc1ccccc1NC(=S)C1=C(O)c2sccc2N(C)S1(=O)=O	?	-2%
CS(=O)(=O)Nc1cccc(C2=NN(C(=O)CCC(=O)O)C(c3cccs3)C2)c1 (stereo not given)	-7%	4%
COC(=O)c1sc(NC(=O)C(C)C)c(C(=O)OC)c1C	-12%	21%
CCCCN(c1ccccc1)c1ncnc(N)c1[N+](=O)[O-]	?	-22%
N#CCCN(C(=O)Cn1nc(C(=O)O)c2ccccc2c1=O)c1ccccc1	12%	-3%
COC(=O)c1ccc(CN(c2ccccc2Cl)S(C)(=O)=O)cc1	-2%	3%
CCCCn1cnc2sc(-c3ccccc3)cc2c1=O	-21%	15%
CCC(C)(C)NC(=O)c1ccc2c(c1)N(CC(=O)N1CCCC1)C(=O)C(C)(C)O2	2%	-16%

(further entries)
SMILES	TDP1 cell CPT	N370S GC mod
COc1ccc(NS(=O)(=O)c2cc(NC(=O)c3cccnc3Cl)ccc2N2CCCC2)cc1	?	-6%
CC(C)C(NC(=O)c1ccccc1NC(=O)c1ccccc1)C(=O)NNC(=O)c1ccncc1 (stereo not given)	-1%	-7%
Cc1ccnc(NC(=O)c2cc3ccccc3oc2=O)c1	-4%	6%
COC(=O)Cc1c(C(=O)OC)nnn1-c1ccc(OC)cc1	-6%	-4%
CCOC(=O)C1=NN(c2ccc(OC)cc2)C2C(=O)N(c3ccccc3OC)C(=O)C12 (stereo not given)	11%	6%
COc1ccc(S(=O)(=O)N2CCC(C(=O)NCC3CCCCC3)CC2)cc1	3%	-7%
O=C(CSc1nnc(NC(=O)Cc2ccccc2)s1)NCC1CCCO1 (stereo not given)	-6%	-8%
O=S(=O)(O)c1cc2oc(-c3ccccc3)nc2c2ccccc12	-20%	15%
Cc1nc2ccccc2n1CC(O)COc1ccccc1Cl (stereo not given)	18µM*	-13%
COc1cccc(/C=C2\N=C(C3CCCCC3)OC2=O)c1OC	-20%	8%
O=C(NNS(=O)(=O)c1ccc(F)cc1)c1ccccc1	-29%	-4%
COc1cc2c(cc1O)[C@@H]1Cc3cc(O)c(OC)cc3[C@H](C2)N1C	?	5%
O=C(CCCc1ccccc1)NCc1ccc(Cl)cc1	19%	2%
CCCCOC(=O)c1ccc(OC(=O)c2cccnc2)cc1	-19%	-26%
N/C(=N\O)C1COc2ccccc2O1 (stereo not given)	-9%	-9%
Cc1ccc(CCN2CC(C(=O)NCCCN3CCC(C)CC3)CC2=O)cc1 (stereo not given)	?	-2%
CS(=O)(=O)c1cccc(NC(=O)c2ccc(Cl)c(Cl)c2)c1	3%	-5%
CCOc1ccc(NC(=O)CCn2nc(C)c(S(=O)(=O)N3CCCCC3)c2C)cc1	?	-1%
Cc1cccc(C)c1OCC(=O)N/N=C/c1ccncc1	?	-2%
O=C(NC1CCN(S(=O)(=O)c2ccccc2)CC1)c1cccc(F)c1	2%	-18%
Cc1ccc(N=Cc2sccc2C)cc1C	18%	-4%
Cc1ccccc1Cn1cc(NC(=O)c2cc(-c3ccco3)on2)cn1	?	15%

A second format for some results above.
canonical_smiles: CCCCOC(=O)c1ccc(OC(=O)c2cccnc2)cc1
  TDP1 cell CPT: -19%
  N370S GC mod: -26%

canonical_smiles: O=C(NC1CCN(S(=O)(=O)c2ccccc2)CC1)c1cccc(F)c1
  TDP1 cell CPT: 2%
  N370S GC mod: -18%
